Assay outcomes as filed in PubChem.
Insulin prom inh: TRM-6 insulin promoter activity inhibition; TRM-6 cells (human fetal islet line), insulin promoter-eGFP reporter, imaging; reporter expression induced with tamoxifen; inhibition, % at 2 µM; 130,000 tested, 0.9% active; AID 1273;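 active = inhibition above the mean plus 3 SD, with well images judged a real hit on visual review, cut at about 60% in these data, passing the limit was not always enough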
RGS16-Gao: RGS16-Galphao interaction regulator (human); AID 1441; O15492+P09471; 220,000 tested, 0.38% active; binding response (% of control), % at 10 µM; bead-based flow cytometry RGS16-Galphao binding, fluorescence; actives lie on both sides;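 active = below 25% or above 175%, edge rows of some plates excepted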;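 note: Galphao activated by GDP with aluminum fluoride before binding; 100% = wells without compound and 0% = beads without RGS; some results beyond the cut were filed as inactive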
GALR2 ag: activates the human galanin receptor 2 | AID 803 | GALR2-expressing cells, agonist activation read-out | activation, %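 (tested at 5 µM)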 | 140,000 tested, 0.48% active | O43603;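 active = above mean plus 3 SD of all compounds, about 5% in these data, not always enough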;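 note: 0% = vehicle buffer wells and 100% = reference agonist at full effect; tested in CHO reporter cells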
PKD1 inh: PKD1 (human) kinase inhibition; Q15139; PKD1 kinase fluorescence polarization assay; inhibition, %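 (about 10 µM by stock and volumes)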; 200,000 tested, 0.056% active;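 active = inhibition of 50% or more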;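 note: controls were vehicle for no effect and a reference inhibitor for full effect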
Target sequence (Q15139 whole entry, looked up): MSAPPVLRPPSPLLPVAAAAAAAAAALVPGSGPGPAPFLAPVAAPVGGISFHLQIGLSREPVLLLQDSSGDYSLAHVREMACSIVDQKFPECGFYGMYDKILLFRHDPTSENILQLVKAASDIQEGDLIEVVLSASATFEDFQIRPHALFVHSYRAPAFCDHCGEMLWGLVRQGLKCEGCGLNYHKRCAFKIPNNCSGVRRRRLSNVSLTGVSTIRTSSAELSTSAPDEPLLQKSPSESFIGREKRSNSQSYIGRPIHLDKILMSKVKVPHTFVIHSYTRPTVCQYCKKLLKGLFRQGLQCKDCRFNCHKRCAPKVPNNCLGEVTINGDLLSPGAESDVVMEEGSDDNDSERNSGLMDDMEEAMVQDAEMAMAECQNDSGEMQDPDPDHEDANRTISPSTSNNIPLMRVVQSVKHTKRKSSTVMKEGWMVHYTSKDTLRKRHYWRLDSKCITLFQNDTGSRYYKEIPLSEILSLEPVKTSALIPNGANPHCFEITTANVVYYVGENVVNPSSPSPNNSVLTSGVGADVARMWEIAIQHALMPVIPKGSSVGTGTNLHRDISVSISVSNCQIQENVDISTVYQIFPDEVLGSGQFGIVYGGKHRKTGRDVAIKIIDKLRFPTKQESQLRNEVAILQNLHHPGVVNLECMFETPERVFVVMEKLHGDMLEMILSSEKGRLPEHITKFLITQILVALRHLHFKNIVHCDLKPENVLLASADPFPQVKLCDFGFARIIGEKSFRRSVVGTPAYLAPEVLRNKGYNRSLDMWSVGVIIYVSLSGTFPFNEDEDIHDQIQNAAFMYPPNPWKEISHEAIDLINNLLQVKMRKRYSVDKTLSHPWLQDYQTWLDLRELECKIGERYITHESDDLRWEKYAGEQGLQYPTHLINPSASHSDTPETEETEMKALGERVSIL
HSV replic up: increases HSV replication in cells; HSV replication augmentation in cells, fold increase; maximum fold increase; 220,000 tested, 0.005% active; AID 1956;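 active = peak rise of 1.5-fold or more in the series; tested in PC3 cells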;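 note: first round at 10 µM; read as green reporter fluorescence; hits show the peak of a series up to 25 µM; 1 = signal of infected wells without compound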
Insulin prom inh cell count: second read-out of Insulin prom inh, no call of its own (marks repeat the call); normalized cell count, %; measured here: cell count, toxicity; reference of the scale not given here;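 cells exposed to compound for 48 h; stained nuclei by imaging scaled within each plate; lower means fewer cells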
HSV replic up primary fold: also measured in HSV replic up; calls as there; fold increase; compound at 10 µM; measured here: primary screen fold increase 10 uM; tested in PC3 cells;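 GFP signal in the first replicate; 1 = infected wells without compound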
The depositor's hits bear a star; i = inactive; . = no result given.

SMILES	Insulin prom inh	Insulin prom inh cell count	RGS16-Gao	GALR2 ag	PKD1 inh	HSV replic up	HSV replic up primary fold
O=C(NCc1cccc(C(F)(F)F)c1)C1CC(c2ccccc2[N+](=O)[O-])=NO1 (stereo unspecified)	20	83	104	-1.7	-9	i	0.79
S=C1NC[C@H](Cc2ccccc2)N1CCCCC1CCCCC1	.	.	98	.	3	i	0.81
CC1=C(C#N)C(c2ccc(O)cc2)C2=C(CC(C)(C)CC2=O)N1 (stereo unspecified)	-70	105	99	-1.0	-2	i	0.88
COc1ccc(C2CC(c3ccc(F)cc3)Nc3nc(N)nn32)cc1OC (stereo unspecified)	.	.	102	-0.2	18	i	0.78
O=C(Nc1nc(-c2ccccc2)c(-c2ccccc2)o1)c1ccc(F)cc1	.	.	90	-1.9	11	i	0.74
CC(=O)Nc1ccc(-c2cc(-c3ccc(NC(C)=O)cc3)nc(-c3ccccc3)n2)cc1	0	130	109	-0.7	0	i	0.82
Oc1c(Br)cc(/C=N/NC(=S)NCc2ccco2)cc1Br	.	.	100	.	.	i	0.94
CCCCCCCc1c(C)nc(N2CCOCC2)[nH]c1=O	-39	22	102	-1.5	1	i	1
Cc1nn2c3c(cnc2c1-c1ccccc1)C(=O)CC(c1ccco1)C3 (stereo unspecified)	-136	126	101	1.0	1	i	1.1
Cc1cc(C)nc(N2CCN(C(=O)CCC(=O)Nc3nnc(C(C)C)s3)CC2)n1	.	.	103	.	.	i	0.99
C[C@@]12CCC=C[C@H]1[C@H](c1ccoc1)N(Cc1ccccc1)C2=O	.	.	105	.	.	i	0.97
COc1cccc(-c2nc(CCl)cs2)c1OC	7	47	113	.	-3	.	.
O=C(Nc1cnn(C23CC4CC(CC(C4)C2)C3)c1)c1cnn2cccnc12	62	152	104	-3.6	-1	i	0.94
CC(=O)c1ccc(N2CCN(C(=O)Cc3n[nH]c(=O)c4ccccc34)CC2)cc1	21	51	112	.	-5	i	0.94
O=C(OC1CCOC1=O)c1cc(-c2cccc(Br)c2)nc2ccccc12 (stereo unspecified)	.	.	101	.	1	i	0.92
CS(=O)(=O)N1CCN(c2ccccc2NC(=S)NC(=O)c2ccccc2[N+](=O)[O-])CC1	.	.	97	.	14	i	1.1
S=C(Nc1ccc(Br)cc1Cl)NN1CCOCC1	.	.	100	.	-4	i	0.94
CCOc1cccc(/C=N/Nc2nc(N3CCCC3)nc(N3CCCC3)n2)c1O	.	.	99	.	.	i	0.89
Cc1cc(C(=O)N/N=C/c2ccc([N+](=O)[O-])cc2)c(C)o1	.	.	115	.	-3	i	0.95
CN(c1ccc(OCC(=O)N2CCOCC2)cc1)S(=O)(=O)c1ccc(F)cc1	38	88	100	.	2	i	0.82
COCCCN1C(=O)C(=O)/C(=C(/O)c2ccc(OC)cc2)C12C(=O)N(C)c1ccccc12 (stereo unspecified)	.	.	102	.	-1	i	1.1
Cc1ccc(C)c(NC(=O)CSc2nnc(-c3ccccc3C)o2)c1	-33	135	105	-0.6	-1	i	0.9
O=C(CCCC(=O)N1CCN(c2ccc([N+](=O)[O-])cc2)CC1)c1ccccc1	28	91	93	-1.1	-4	i	0.96
CCOc1ccc(S(=O)(=O)N2CCN(C)CC2)c(C)c1C	-17	77	104	-1.3	-1	i	1
O=C(Nn1cnc2ccccc2c1=O)c1ccccc1Cl	.	.	142	-1.6	3	i	0.99
O=C(C1CC1)N(CCc1ccccc1)Cc1nc2ccccc2c(=O)[nH]1	.	.	101	-0.6	-4	i	0.83
CCC(=O)Nc1cccc(-c2nnc(SCC(=O)NCc3ccco3)n2C)c1	.	.	101	-1.4	3	.	.
O=c1[nH]c(-c2ccco2)nc2sc3c(c12)CCCC3	27	90	102	-0.7	-7	i	0.91
Cc1onc(-c2c(F)cccc2Cl)c1C(=O)O/N=C(\N)c1ccc([N+](=O)[O-])o1	.	.	89	.	.	i	0.81
COc1cc([C@@H]2[C@H]3CN(C)CC=C3C(C#N)=C(N)C2(C#N)C#N)cc2c1OCO2	.	.	100	-1.0	-3	i	1.2
CCC1C2CN(C(C)=O)CC=C2C(C#N)=C(N)C1(C#N)C#N (stereo unspecified)	15	188	104	-1.2	4	i	0.97
CCOC(=O)CSc1nc2nc(C)cc(C)n2n1	0	79	110	-0.6	1	i	1.1
CN(C)S(=O)(=O)c1ccc(NC(=O)CN2CCCc3ccccc32)cc1	-383	92	106	.	3	i	1.1
Cc1cc(S(N)(=O)=O)c(N)c(S(N)(=O)=O)c1	.	.	100	.	.	i	1.1
Cc1ccc(NC(=O)c2ccco2)c(NC(=O)CN2C(=O)c3ccccc3C2=O)c1	-56	76	94	0.7	1	i	1
N#CCCn1cc(/C=N/O)c(-c2cccc([N+](=O)[O-])c2)n1	.	.	102	.	-4	i	0.96
CCCCCC(=O)Nc1ccccc1N1CCN(c2ccccc2)CC1	.	.	106	0.1	-7	i	0.91
Fc1cccc(-c2cc3nc4c(c(N5CCN(c6cnccn6)CC5)n3n2)CCCC4)c1	24	99	.	-0.3	-6	.	.
CCCC(C(=O)NCc1ccco1)N(C(=O)CNS(=O)(=O)c1ccccc1)C1CCCC1 (stereo unspecified)	-32	122	98	-1.0	-5	i	0.99
CCN(CC)c1ccc(C2C(C(=O)OCCOC(C)C)=C(C)NC3=C2C(=O)CCC3)cc1 (stereo unspecified)	.	.	93	0.8	-6	i	1

5 compounds already listed, arranged by length of the SMILES, low to high:
SMILES	Insulin prom inh	Insulin prom inh cell count	RGS16-Gao	GALR2 ag	PKD1 inh	HSV replic up	HSV replic up primary fold
O=C(Nn1cnc2ccccc2c1=O)c1ccccc1Cl	.	.	142	-1.6	3	i	0.99
CCC1C2CN(C(C)=O)CC=C2C(C#N)=C(N)C1(C#N)C#N (stereo unspecified)	15	188	104	-1.2	4	i	0.97
N#CCCn1cc(/C=N/O)c(-c2cccc([N+](=O)[O-])c2)n1	.	.	102	.	-4	i	0.96
CCCC(C(=O)NCc1ccco1)N(C(=O)CNS(=O)(=O)c1ccccc1)C1CCCC1 (stereo unspecified)	-32	122	98	-1.0	-5	i	0.99
COCCCN1C(=O)C(=O)/C(=C(/O)c2ccc(OC)cc2)C12C(=O)N(C)c1ccccc12 (stereo unspecified)	.	.	102	.	-1	i	1.1

Next compounds follow:
SMILES	Insulin prom inh	Insulin prom inh cell count	RGS16-Gao	GALR2 ag	PKD1 inh	HSV replic up	HSV replic up primary fold
Nc1nnc(SCC(=O)N2CCc3ccccc3C2)s1	.	.	101	.	-2	i	0.96
Cc1cccc(OC2CCN(Cc3c(C(=O)N4CCCC4)nc4ccccn34)CC2)c1	5	87	113	.	-9	i	0.92
O=C(Nc1nc2c(F)cc(F)cc2s1)C1COc2ccccc2O1 (stereo unspecified)	.	.	100	.	.	i	1.1
CS(=O)(=O)NCc1nnc(SCC(=O)NC2CCCCC2)n1-c1ccc(F)cc1	-5	75	105	-1.2	4	i	1.1
CC(C)n1c(S(=O)(=O)O)nc2ccccc21	.	.	103	.	6	i	1.1
O=C1c2cccnc2C(=O)N1CO	-45	106	103	-0.8	-1	i	0.92
CCOC(=O)C1NN=C(C(=O)c2ccc(C)cc2)C1c1ccc(C)cc1 (stereo unspecified)	-8	112	101	-0.8	12	i	1
c1ccc(CCNc2ncnc3c2cnn3-c2ccccc2)cc1	12	94	50	-1.1	7	i	1.1
CCCCNC(=O)CSc1nc(O)cc(=O)n1C1CCCC1	.	.	100	.	4	i	0.82
Cc1ccc(-c2nn(-c3ccccc3)c3[nH]c(=O)c(CNCc4ccccc4)cc23)cc1	38	144	109	-0.1	-2	i	0.78
COc1cc2nc(-c3cccs3)oc(=O)c2cc1OC	9	147	.	-1.4	4	i	1.1
O=C(O)c1ccc(NS(=O)(=O)c2ccc(Cl)cc2)cc1	46	144	90	-0.9	-10	i	0.87
Cc1ccc(NS(=O)(=O)c2sc3ccc(Cl)cc3c2C)cc1	.	.	94	.	.	i	0.82
CCN1CCCC1CNC1=NCCCCC1 (stereo unspecified)	-21	168	100	1.4	-2	i	0.93
O=C(c1cccc(F)c1)N1CCC(c2nc3ccccc3s2)CC1	.	.	99	.	8	i	1
CC1(C(=O)Nc2nccs2)Cc2ccccc2C(=O)O1 (stereo unspecified)	29	51	105	-1.4	1	i	0.97
Cc1ccc(NS(=O)(=O)c2cccc(C(=O)NNC(=O)NC3CCCCC3)c2)c(C)c1	-21	82	117	-0.7	8	i	0.95
CCOC(=O)N1CCN(c2nc(-c3cccs3)cc(C(F)(F)F)n2)CC1	-24	164	98	-1.7	-5	i	1
O=C(CSc1n[nH]c(-c2ccccc2Cl)n1)NCc1cccc(C(=O)O)c1	.	.	107	.	-5	i	1
CCO[C@@H]1OC(C(=O)N2CCN(Cc3ccc4c(c3)OCO4)CC2)=C[C@H](c2csc3ccccc23)[C@H]1CCCO	.	.	101	.	10	i	0.68
COc1cccc(C(O)c2cnc(C(C)C)n2C)c1 (stereo unspecified)	.	.	99	.	.	i	0.81
CCOC(=O)C1=C(C)OC(N)=C(C#N)C1c1c(C)nn(-c2ccc(C)cc2)c1Cl (stereo unspecified)	-29	111	96	-2.3	3	.	.
CCc1ccc(OCC(=O)OCC(=O)c2c(N)n(C)c(=O)n(C)c2=O)cc1	-47	71	105	.	3	i	0.97
CN(C)c1ccc(NC(=O)COC(=O)Cn2nnc3ccccc32)cc1	.	.	96	-0.3	2	i	1.3
Brc1cccc(OCCN2CCCCC2)c1	54	116	106	-0.5	-6	i	1
C=CCn1c(=N)c(C(=O)NCCCOC)cc2c(=O)n3ccccc3nc21	.	.	102	23*	7	i	0.97
CCC(=O)NNC(=O)CCC(=O)Nc1cccc(Cl)c1C	.	.	93	.	-6	i	0.83
COc1ccc(N2C(=O)C(Cl)=C(N3CCN(Cc4ccccc4)CC3)C2=O)cc1	32	118	114	-1.6	1	i	1.1
CCCCOC(=O)Nc1ccc(N(C)C)cc1	31	100	35	-1.5	0	i	0.94
CCOC(=O)/C=C1\SCC(=O)N1CCOc1cccc(Br)c1	-23	90	95	-1.7	-17	.	.
COc1ccc(C(=O)Cn2ccsc2=NC(C)=O)cc1	27	28	109	.	-3	i	0.99
Cn1cc(C(=O)NC2CCCCCCC2)c(=O)c2cc(S(=O)(=O)N3CCCC3)ccc21	34	90	144	-1.9	4	i	0.91
Cc1ccc(S(=O)(=O)N2CCN(c3ccc([N+](=O)[O-])c4cccnc34)CC2)cc1	.	.	104	-0.9	3	i	1
Cc1cc(NNC(=O)c2ccccc2)nc(NNC(=O)c2ccccc2)n1	-7	138	101	.	-1	i	0.85
CCOc1cc(C(N)=O)cc(Br)c1OC	12	104	50	-0.6	-6	i	0.72
CN(C)CCN(Cc1cc2cc3c(cc2[nH]c1=O)OCO3)C(=S)NCC1CCCO1 (stereo unspecified)	.	.	96	.	0	i	0.97
CCCN1C2CCCC1CC(NC(=O)Nc1cccc(C(C)=O)c1)C2 (stereo unspecified)	-38	179	101	-2.8	-5	i	1.1
C[C@H](NC(=O)c1nc[nH]c1C(=O)NCC(=O)OC(C)(C)C)C(=O)OC(C)(C)C	.	.	82	.	.	i	0.67
COCCn1c(=NC(=O)c2ccc(S(=O)(=O)N3CCc4ccccc4C3)cc2)sc2cc(S(N)(=O)=O)ccc21	-28	106	92	-0.1	-9	i	0.88

In another format: entries from further up.
The line under a structure holds: Insulin prom inh	Insulin prom inh cell count	RGS16-Gao	GALR2 ag	PKD1 inh	HSV replic up	HSV replic up primary fold
> COc1ccc(N2C(=O)C(Cl)=C(N3CCN(Cc4ccccc4)CC3)C2=O)cc1
  32	118	114	-1.6	1	i	1.1
> Cc1cc(NNC(=O)c2ccccc2)nc(NNC(=O)c2ccccc2)n1
  -7	138	101	.	-1	i	0.85
> CCOC(=O)/C=C1\SCC(=O)N1CCOc1cccc(Br)c1
  -23	90	95	-1.7	-17	.	.
> Cn1cc(C(=O)NC2CCCCCCC2)c(=O)c2cc(S(=O)(=O)N3CCCC3)ccc21
  34	90	144	-1.9	4	i	0.91
